Sfp inh: Sfp phosphopantetheinyl transferase inhibition. Q9F4F7. Biochemical Sfp PPTase activity, qHTS. 310,000 compounds, 3.5% hits. Potency, µM, inactives show max response, negative = inhibition, actives largely listed as inhibitors; active = well fitted inhibition curve with a large enough effect; inconclusive = small, poorly fitted or top-dose-only effect, or another doubt; inactive = no such curve, though single readings can be large or run the other way;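 note: the enzyme is Sfp with the accession as filed and its product quenches rhodamine fluorescence; potency is the fitted concentration of half-maximal effect; 0% = enzyme reaction without inhibitor and -100% = no enzyme wells; top concentration of the series not given in the record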
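Fluorescence-quenching assay: 15 nM Sfp-PPTase preincubated 15 min at room temperature with compound, then 5 uM rhodamine-CoA and 12.5 uM BHQ-2-labelled YbbR peptide added. Fluorescence (ex 525/em 598 nm) read at start and after 30 min; difference gives rate.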
D2 PAM: human D2 receptor positive allosteric modulation; P14416; DiscoveRx D2 beta-arrestin cells, luminescence, 90 min; 100% = 57 uM dopamine signal; potentiation, % (no concentration beside the values); 360,000 compounds, 0.23% hits; AID 624464; active = potentiation of 50% or more; inconclusive = 30% to 50%; inactive = 30% or less;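 note: compound concentration not given in the record; tested on top of an EC20 dose of dopamine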
Target sequence (P14416 whole entry, looked up): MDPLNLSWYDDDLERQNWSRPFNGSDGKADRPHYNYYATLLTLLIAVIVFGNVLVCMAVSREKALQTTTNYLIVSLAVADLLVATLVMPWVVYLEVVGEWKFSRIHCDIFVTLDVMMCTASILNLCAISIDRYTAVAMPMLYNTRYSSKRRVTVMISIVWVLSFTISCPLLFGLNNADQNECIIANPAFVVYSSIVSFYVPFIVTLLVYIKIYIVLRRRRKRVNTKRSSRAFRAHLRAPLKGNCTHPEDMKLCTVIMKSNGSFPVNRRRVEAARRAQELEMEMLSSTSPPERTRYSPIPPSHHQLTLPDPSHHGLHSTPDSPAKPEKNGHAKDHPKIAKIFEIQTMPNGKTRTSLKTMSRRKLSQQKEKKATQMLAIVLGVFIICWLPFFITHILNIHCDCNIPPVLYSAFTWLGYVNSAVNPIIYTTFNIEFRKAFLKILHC
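PathHunter beta-arrestin assay in DiscoveRx D2 cells. Compounds were added with an EC20 of dopamine (50 nM final) for 90 min at 37 deg C. Luminescence was read 1 h after detection reagent, with 57 uM dopamine as the EC100 control.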
ClpP mod: qHTS Assay for Activators of ClpP; 340,000 compounds, 1.9% hits; ATP-dependent Clp protease proteolytic subunit (Bacillus subtilis (strain 168)), P80244; Potency, µM (highest dose often 57.5 µM), without a hit: at the highest dose activity change, negative = active; purified B. subtilis ClpP, FRET peptide cleavage, 20 min; active = well fitted falling curve with a large enough effect; inconclusive = small, poorly fitted or top-dose-only effect; inactive = no such curve, though single readings can be large or run the other way; note: potency is the fitted concentration of half-maximal effect; the source files actives as falling curves though it sought activators and does not explain the sign; nearly all actives have a fitted effect of over 65% in size; many hits overshoot -100%
Target sequence (P80244 whole entry, looked up): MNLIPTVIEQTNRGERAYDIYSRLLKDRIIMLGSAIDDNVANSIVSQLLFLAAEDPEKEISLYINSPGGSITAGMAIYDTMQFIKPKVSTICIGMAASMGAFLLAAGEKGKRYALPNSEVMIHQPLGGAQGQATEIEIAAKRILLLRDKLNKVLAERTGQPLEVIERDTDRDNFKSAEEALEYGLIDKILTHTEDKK
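Buffer: 100 mM Tris/HCl pH8, 100 mM KCl, 0.05% low protease BSA, 2.5% glycerol, 0.01% Tween-20. ClpP 10 microg/mL final; 20 min RT; delta FRET normalized to ADEP and DMSO controls.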
gsp antagonist: gsp mutant antagonism; gsp-mutant cells, cAMP HTRF, 30 min; control for the full effect not named in the record; Potency, µM (highest dose often 76.9 µM), without a hit: at the top dose activity change, negative = inhibition, usual class: inhibitors; 340,000 compounds, 0.4% hits; active = falling curve of any shape with a large fitted effect; inconclusive = falling curve, mostly with a smaller effect; inactive = flat or rising curve; cell line not stated here;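 note: intracellular cAMP measured with PDE inhibitor Ro 20-1724 present during compound exposure; potency is the fitted concentration of half-maximal effect; % is set by controls: 0 for no effect and ±100 for the full control effect; nearly all actives have a fitted effect of over 65% in size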
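Cells in G418 medium, seeded 16-24 h, 37C; buffer exchange to DPBS + 1 mM CaCl2, 0.5 mM MgCl2, 0.05% BSA; cpds in DMSO + […] (300 uM stock), 30 min 37C; HTRF cAMP detection.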
TRPV1 potentiator: human TRPV1 potentiation | TRPV1-expressing cells, Fluo-8 calcium influx, capsaicin EC20 potentiation; host cell line not named in the record; control for the full effect not named in the record | AID 540277 | 320,000 compounds, 0.02% hits | potentiation, % at 8.33 µM | Q8NER1; active means potentiation above 80%; inconclusive means 30% to 80%; inactive means below 30%; note: 0% is about no effect
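Cells expressing TRPV1 were dye-loaded with Fluo-8 and read kinetically: 10 s baseline, 3 min after compound (agonist portion), then 2 min after EC20 capsaicin (allosteric enhancer portion). Calcium-bound dye fluorescence at 480/520 nm.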
Menin MLL FP FL: menin-MLL binding inhibition, fluorescein peptide; FP activity change, % at 61.4 µM; Fluorescence polarization, fluorescein-MLL peptide displacement from menin; 290,000 tested, under 10 active; AID 1766; inconclusive = falling polarisation curve, or a change in total fluorescence; inactive = total fluorescence flat and polarisation flat or rising; no compound was filed as active; the % refers to the polarisation; negative = inhibition;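 note: % of control where 0% means no effect; inhibitors lower the polarisation; unlabelled MLL peptide was the positive control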
gsp agonist: agonists of gsp mutant (McCune-Albright syndrome); gsp mutant cells, cAMP HTRF, 30 min; control for the full effect not named in the record; Potency, µM (top dose mostly 76.9 µM), inactives show top-dose activation (cAMP increase), hits mostly activators; 340,000 compounds, 0.13% hits; active = well fitted activation curve with a large enough effect; inconclusive = small, poorly fitted or top-dose-only effect, or another doubt; inactive = no such curve, though single readings can be large or run the other way; cell line not stated here;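 note: phosphodiesterase inhibitor Ro 20-1724 added with compounds to block cAMP breakdown; potency is the fitted concentration of half-maximal effect; nearly all actives have a fitted effect of over 60% in size; about a fifth of the inactives were tested at one dose only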
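Cells in DMEM/10% FBS with G418 were pretreated with compounds in DMSO plus […] (300 uM stock) for 30 min at 37C. cAMP was measured by HTRF (cAMP-d2 plus anti-cAMP antibody-K) after 30 min at room temperature.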
The depositor's hits bear a star; ? = inconclusive; . = not tested or not shown; & = joins results of further samples; [ ] = remark or other dose.

SMILES | Sfp inh | D2 PAM | ClpP mod | gsp antagonist | TRPV1 potentiator | Menin MLL FP FL | gsp agonist
Cc1nc(CN(C)Cc2nc(Cc3ccccc3Cl)no2)cs1 | 12.2% | -6.6 | -1.8% | 6.0% | 2.9 | -2.0 | 0.1%
O=C(/C=C/c1ccco1)Nc1ccc(C(=O)N2CCOCC2)cc1 | -52.4% | -13.0 | -2.1% | 9.3% | -3.7 | 2.7 | 1.1%
N#CCCN(CCN1CCCC1)S(=O)(=O)c1ccc(-c2ccc([N+](=O)[O-])cc2)cc1 | -1.7% | -1.1 | . | -5.1% | 3.8 | -11.8 | -10.0%[15.4 µM]
Cc1ccc(NC(=O)COC(=O)C2CC2)cc1S(=O)(=O)N1CCOCC1 | . | -1.6 | -0.4% | -2.3% | . | . | -19.2%
COc1cccc(C(CCc2cc(OC)c(OC)c(OC)c2)NC(C)=O)c1 (stereo unspecified) | . | -13.5 | -1.6% | -6.9% | . | . | 9.7%[15.4 µM]
Cc1ccc(S(=O)(=O)NCc2ccc(C(=O)NCCCN3CCN(C)CC3)cc2)cc1 | 15.1% | -2.0 | 0.6% | 10.5% | 1.8 | 2.7 | -0.5%
Nc1ccc(C(=O)OCC(=O)Nc2ccc([N+](=O)[O-])cc2C(F)(F)F)cc1 | 13.7% | 11.0 | 22.4µM* | -3.4% | -13.8 | 0.5 | -15.1%
COc1cc(NC(=O)CSc2nc3ncnc(N)c3[nH]2)c(C(=O)O)cc1OC | -24.4% | -5.3 | . | 4.5% | 0.0 | -5.6 | 6.6%
COCCCNC1=C(Cl)C(=O)c2ccccc2C1=O | 0.9% | -8.4 | . | -14.9% | 9.3 | -8.3 | 29.8%
COc1ccc(-n2ncc3c(=O)n(CC(=O)NC(C)C)cnc32)cc1 | 16.0% | -3.1 | -6.8% | 3.5% | 27.7 | -1.4 | -12.5%
Cc1ccc(C(=O)NNC(=O)C2CCN(S(=O)(=O)c3ccc(C)cc3)CC2)cc1 | 19.4% | -6.4 | . | 5.1% | 5.2 | -4.7 | -9.8%[15.4 µM]
COc1cc2c(cc1OC)CN(C(=O)/C=C/c1cc(OC)c(OC)c(OC)c1)CC2 | -2.4% | -1.3 | 6.6% | 4.6% | 8.4 | 0.4 | -7.4%[15.4 µM]
Cc1ccccc1NC(=O)COC(=O)c1c(-c2ccccc2)noc1C | . | -0.2 | 0.3% | -19.3% | -10.9 | . | -37.8%
Cc1nc(-c2coc3cc(O)c(C)cc3c2=O)cs1 | 2.9% | ? | -24.8% | 2.4% | 1.4 | 0.7 | ?
CSc1ccc(CN(C)CC(=O)NC(=O)NC(C)(C)C)cc1 | -1.1% | -17.7 | 3.2% | -19.9% | ? | 4.3 | 2.6%
Cc1noc(C)c1S(=O)(=O)Nc1ccc2c(c1)C(=O)N([C@H](C)CO)C[C@H](C)[C@@H](CN(C)Cc1ccc(C(=O)O)cc1)O2 | . | 11.3 | -9.6% | 8.7% | . | . | -12.3%
COCC(=O)N1CCC(Oc2ccc(C(=O)NCc3cnc(C)cn3)cc2)CC1 | -3.8% | -0.9 | . | 15.7% | 3.9 | -0.8 | -5.4%[15.4 µM]
Nc1nncn1C(=O)CCCN1C(=O)c2ccccc2C1=O | 18.5% | 13.2 | -4.4% | 6.0% | ? | 0.6 | 8.9%
O=C(Nc1cc(-c2ccccc2)[nH]n1)c1ccccc1 | 8.4% | -10.1 | . | -3.2% | -19.0 | 0.8 | -13.8%[15.4 µM]
Nc1nonc1-n1nnc(C(=O)N/N=C/c2ccccc2)c1CSc1ccccc1 | 3.2% | -9.4 | . | 1.1% | 12.6 | 0.7 | -2.9%[15.4 µM]
CC1CC(C)CN(C(=O)Cc2c(C(=O)O)[nH]c3ccc(Cl)cc23)C1 (stereo unspecified) | 9.5% | -2.2 | . | -1.6% | 23.4 | -5.0 | ?
CC(c1ccccc1)N1CC(C(=O)N2CCN(Cc3ccc(C#N)cc3)CC2)CC1=O (stereo unspecified) | . | 1.4 | . | 3.7% | 3.8 | . | -9.4%[15.4 µM]
C=CCOC(=O)C1=C[C@@H](c2ccc(C(F)(F)F)cc2)C[C@@H](OCc2ccc(CO)cc2)O1 | . | -38.0 | 0.7% | -5.3% | . | . | .
COc1cc(/C=c2\sc3n(c2=O)CCCN=3)ccc1O | -11.2% | -38.6 | 2.8% | ? | 1.2 | 25.1 | 6.9%
COCC1CCN(Cc2cn[nH]c2-c2cc(OC)c(OC)c(OC)c2)CC1 | 7.8% | -4.1 | . | 4.6% | -8.6 | -1.1 | -5.7%[15.4 µM]

New compounds follow:
SMILES | Sfp inh | D2 PAM | ClpP mod | gsp antagonist | TRPV1 potentiator | Menin MLL FP FL | gsp agonist
N/C(=N\OC(=O)CC1CCCCC1)c1cccc(Br)c1 | 1.2% | -22.0 | -0.7% | 4.1% | -18.8 | . | ?
COc1ccccc1C(=O)NNC(=O)c1ccc2ccccc2c1 | 21.9% | 66.9* | 1.1% | 6.3% | ? | -0.8 | -8.7%
O=C(O)C1=CCCNC1 | 10.3%&1.1%&-1.7% | -2.0 | -0.5% | 2.9% | . | 0.0&-7.1&-7.0 | .
Cc1ccc(C(C)C)c(OCC(=O)NNC(=O)C2CSC3(C)CCC(=O)N23)c1 (stereo unspecified) | . | -15.6 | 0.7% | 12.5% | -1.5 | . | ?
CCCOc1ccc(C(F)(F)F)cc1NC(=O)C1CC(=O)N(Cc2ccco2)C1 (stereo unspecified) | . | -7.3 | 1.1% | -0.7% | -13.2 | . | 22.8%
Cc1cccc(C)c1NC(=O)CNC(=O)c1c(-c2ccccc2)noc1C | . | -6.8 | -0.1% | 0.2% | -3.1 | . | -6.9%
CCCCN(C)S(=O)(=O)c1cc2c3c(c1)CCC(=O)N3CCC2 | 6.6% | 1.0 | -0.1% | 6.3% | -0.2 | 2.8 | -0.9%
Cc1nc(N2CCOCC2)[nH]c(=O)c1[N+](=O)[O-] | 19.1% | -10.4 | 2.2% | 2.2% | 4.3 | -1.0 | -11.3%
O=S(=O)(Nc1ccn(-c2ccccc2)n1)c1ccc(Br)cc1 | -13.9% | 5.9 | -4.5% | -16.1% | 7.4 | 1.6 | -30.2%[inhibitor]
Cn1nnc(NC(=S)NC(=O)c2ccccc2)n1 | 35.5µM* | -46.3 | 1.2% | -0.9% | 9.7 | -0.6 | -4.0%[15.4 µM]
COc1ccccc1C(=O)OCC(=O)Nc1ccc(Cl)cn1 | 0.3% | -8.7 | -7.3% | -7.7% | -4.4 | -1.1 | 4.5%
COc1ccc(-n2nc(C(=O)NCC(=O)N3CCN(c4ccccn4)CC3)c3ccccc3c2=O)cc1Cl | 14.8% | 1.2 | 0.0% | -7.1% | 6.7 | -8.5 | 5.2%[15.4 µM]
COc1ccc(NC(=O)c2ncn[nH]2)cc1 | 21.4% | 10.0 | 0.4% | 9.3% | -3.7 | 0.3 | 1.9%
Cc1ccc(S(=O)(=O)NC(C(=O)Oc2ccc3c(C(F)(F)F)cc(=O)oc3c2)c2ccccc2)cc1 (stereo unspecified) | -11.8% | -33.3 | -0.1% | 6.7% | -15.2 | ? | -1.1%[15.4 µM]
O=C1C(Cc2ccccc2)C(c2ccccc2)N1c1ccccc1 (stereo unspecified) | 1.2% | -5.2 | 0.4% | ? | -1.3 | 0.2 | 2.0%
COc1ccc(CCNC(=O)COC(=O)Cn2cnc3c2c(=O)n(C)c(=O)n3C)cc1 | . | -12.9 | -0.4% | 13.3% | 0.5 | . | ?
O=C(NCCN1CCCC1)c1ccccc1Cl | 15.7% | -5.8 | 0.7% | 15.6% | 21.6 | -3.5 | ?
CC1CCCCN1C(=O)COc1ccc(S(=O)(=O)N2CCCC2)cc1[N+](=O)[O-] (stereo unspecified) | . | -0.2 | 0.7% | 2.4% | -3.6 | . | -12.2%
COc1ccc(S(=O)(=O)Nc2c(NC3CCCCC3)c3ccccc3oc2=O)cc1Cl | -1.7% | -1.9 | -24.1% | -14.2% | -2.7 | . | -38.5%
O=C(Nc1ccccc1NC(=O)c1csnn1)c1csnn1 | ? | 4.5 | 0.8% | -0.9% | -25.4 | -1.9 | 1.2%
COc1ccc(S(=O)(=O)N(C(=O)C(C)C)c2ccc3oc(=O)sc3c2)cc1 | ? | -6.0 | -0.7% | -6.9% | 6.1 | 3.3 | -28.2%
O=C(O)c1ccc(Cn2cnc3scc(-c4ccccc4)c3c2=O)cc1 | 8.1% | -3.1 | 0.5% | -3.0% | 25.5 | 2.6 | -45.6%[inhibitor]
CCOC(=O)CC(c1ccc([N+](=O)[O-])cc1)n1c(C)ccc1C (stereo unspecified) | -0.9% | -2.2 | . | -6.2% | -7.7 | -1.7 | 4.2%[15.4 µM]
CN(C)S(=O)(=O)c1cc(C(=O)NCc2ccccc2)c(Cl)cc1Cl | 6.0% | -12.0 | 0.1% | -11.7% | -9.8 | -1.7 | -38.7%[inhibitor]
COc1ccc(C(=O)NC2CCN(C(=S)Nc3ccccc3C)CC2)cc1 | 11.5% | -3.1 | . | 6.5% | 8.3 | -12.2 | 14.6%

Following part:
SMILES | Sfp inh | D2 PAM | ClpP mod | gsp antagonist | TRPV1 potentiator | Menin MLL FP FL | gsp agonist
CCC(C)NC(=O)/C=C/c1cccs1 (stereo unspecified) | 4.1% | -4.8 | -6.3% | 3.4% | -4.1 | 5.2 | 12.6%[15.4 µM]
CCOC(=O)N1CCN(C(=O)CNS(=O)(=O)c2c(C)cc(C)cc2C)CC1 | 1.0% | -2.4 | . | -25.8% | -0.6 | 4.1 | -5.4%[15.4 µM]
Cn1c(N)c(C(=O)CNC2CCCCC2)c(=O)n(C)c1=O | . | -3.9 | 0.4% | ? | . | . | -7.8%
COc1ccc(C2C(C(=O)Nc3cccc(C)n3)c3ccccc3C(=O)N2C)cc1OC (stereo unspecified) | 8.6% | -13.2 | 4.7% | 1.6% | 5.9 | 1.5 | ?
CSc1nc2sc3c(c2c(=O)[nH]1)CCC(C)C3 (stereo unspecified) | 10.6% | -4.5 | -0.9% | 5.8% | -9.4 | 3.0 | 0.5%
CC(=O)N1[C@@H]2CC3C4CC=C5C[C@@H](O)CC[C@]5(C)C4CC[C@]3(C)[C@@]21C(C)=O (stereo partly specified) | 6.0% | 27.6 | -3.5% | 4.4% | -8.5 | -2.0 | 4.6%

Compounds as they come. Share with any hit: about 5.1%.
